# Calb FLC – C. albicans growth inhibition with fluconazole, primary screen, CaCi-2 strain, Alamar Blue fluorescence. C. albicans CaCi-2 (fluconazole-resistant clinical isolate) + fluconazole, 48 h. actives 0.57% (n = 300,000). growth inhibition, % (no concentration beside the values);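 active = most replicates above 75%; inconclusive = exactly half above 75%; inactive = most below 75%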;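 also: all wells also contain fluconazole at 8 µg/ml as a sub-toxic cotreatment; 0% = median of DMSO wells and 100% = median of geldanamycin control wells; wells of about 8 µL received 7.5 nL stock; the first replicate is given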
# RanGTP-Impb inh – inhibitors of RanGTP-importin-beta interaction, primary screen, biochemical, FRET, CFP-Ran, YFP-importin-beta, homogeneous | cell-free CFP-Ran/YFP-importin-beta FRET ratio | inhibition, % (concentration not given with the values) | actives 1.1% (n = 300,000);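 active = most replicates above 15%; inconclusive = exactly half above 15%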;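 also: 0% = DMSO wells and 100% = Ran loaded with GDP instead of GTP; wells of about 40 µL received 100 nL stock; the first replicate is given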
# Bfl-1 A1 inh – caspase 3/7 activation in MEF A1-2A-BIM cells, primary screen, A1 inhibitor project, cell-based, luminescence, HTS. Caspase-Glo 3/7 luminescence, 3 h; percent of clofoctol response, vehicle zero. caspase activation, % (concentration not given with the values). actives 0.066% (n = 330,000);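 active = over half of replicate activation scores above 10%, or exactly half above 10 with the replicate mean above 10; inconclusive = replicate mean below 10 yet half the replicates above 10; inactive = over half of replicates below 10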;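 also: wells of about 30 µL received 50 nL stock; many hits fall short of the cut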
# T cruzi repl – inhibitors of intracellular T. cruzi growth, primary screen, luminescence, NIH3T3 host cells; inhibition, % (test concentration not listed); T. cruzi beta-gal in NIH3T3, 90 h; actives 1.4% (n = 300,000);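 active = mean inhibition across valid replicates above about 55%, limit read from the data; inconclusive = mean below that limit but half or more replicates reach it; inactive = mean below it, under half of replicates reach it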;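 also: signal also drops with host cell toxicity which is not excluded here; 0% = plate median of DMSO wells and 100% = zero luminescence signal; higher percent means less beta-gal luminescence so fewer parasites; stock transfer was 50 nL into about 50 µL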
# Beta apoptosis – inhibitors of cytokine-induced beta cell apoptosis, primary screen, luminescence; INS-1E cytokine-induced death, ATP luminescence, 48 h; percent of positive-control rescue, neutral wells zero; AID 435005, 2010; actives 0.8% (n = 300,000); protection from apoptosis, % (test concentration not listed);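 active = all replicates at 75% or more, or half of them and the mean; inconclusive = half reach 75% but not the mean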;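 also: 0% = cytokine-treated negative control wells and 100% = positive control rescue; higher means more ATP so stronger rescue from cytokine killing; wells of about 40 µL received 100 nL stock; the first replicate is given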
# Beta2AR agonist – beta2AR agonists driving receptor internalization, primary screen, cell-based, FAP fluorogen, flow cytometry. actives 0.43% (n = 340,000). response, % (no concentration beside the values). Am2.2-beta2AR cells; reference of the scale not given here;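 active = response above a set limit, near 3 SD of response in nonfluorescent compounds, cut at about 42% in these data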;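 also: stock transfer was 100 nL into about 11 µL; a reference agonist was the positive control; negative values mostly stem from fluorescent compounds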
# Target sequence (P07550 whole entry, looked up): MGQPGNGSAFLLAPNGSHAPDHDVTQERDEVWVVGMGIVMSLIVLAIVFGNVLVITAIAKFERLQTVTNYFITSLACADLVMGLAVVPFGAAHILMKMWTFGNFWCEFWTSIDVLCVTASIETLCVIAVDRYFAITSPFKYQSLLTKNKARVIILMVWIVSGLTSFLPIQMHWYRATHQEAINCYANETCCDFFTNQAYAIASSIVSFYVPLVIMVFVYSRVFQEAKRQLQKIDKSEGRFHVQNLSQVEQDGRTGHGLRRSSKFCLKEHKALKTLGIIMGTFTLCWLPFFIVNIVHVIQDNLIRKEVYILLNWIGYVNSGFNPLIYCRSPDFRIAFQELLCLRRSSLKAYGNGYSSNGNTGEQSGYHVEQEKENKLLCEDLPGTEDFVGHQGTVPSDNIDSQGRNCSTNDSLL
# UCH37 inh – inhibitors of human UCH37 deubiquitinase, primary screen, biochemical, Ub-AMC cleavage, fluorescence | Ubiquitin carboxyl-terminal hydrolase isozyme L5 (Homo sapiens), Q9Y5K5 | purified proteasome/UCH37 | inhibition, % (no concentration beside the values) | actives 0.33% (n = 330,000) | AID 588478, 2011;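 active = mean of two replicates above 20%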;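 also: 0% = compound-free wells with enzyme and 100% = wells lacking proteasome; stock transfer was 100 nL into about 20 µL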
# Target sequence (Q9Y5K5 whole entry, looked up): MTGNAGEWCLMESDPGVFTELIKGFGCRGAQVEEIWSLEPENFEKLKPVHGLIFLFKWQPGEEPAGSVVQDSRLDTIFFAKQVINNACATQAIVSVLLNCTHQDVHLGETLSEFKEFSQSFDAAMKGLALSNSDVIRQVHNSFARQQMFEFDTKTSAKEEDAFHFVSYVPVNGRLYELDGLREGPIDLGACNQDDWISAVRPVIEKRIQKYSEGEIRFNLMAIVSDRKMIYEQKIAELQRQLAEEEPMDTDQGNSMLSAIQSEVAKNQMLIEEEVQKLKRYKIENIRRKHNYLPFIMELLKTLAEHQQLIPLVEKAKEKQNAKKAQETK
#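 Material: human UCH37 enzyme supplied as purified proteasome complex. Measure: % inhibition of Ub-AMC cleavage fluorescence. Medium: pH 7.4 Tris-HCl (50 mM) with ovalbumin, ATP-MgCl2, DTT. Times: 30 min preincubation with enzyme, 25 min cleavage at room temperature. Detection: AMC fluorescence intensity at 355/460 nm.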
# LANA-H2B inh – blockers of LANA interaction with H2A/H2B – biochemical, FP readout, HTS, primary screen | Protein LANA1 (Human herpesvirus 8 type P (isolate GK18)), Q9QR71 | cell-free LANA-H2A/H2B peptide, fluorescence polarization | inhibition, % (concentration not given with the values) | actives 0.6% (n = 320,000); in the data active = inhibition mostly above about 10%, no sharp cut-off; inactive = mostly below about 6.7%;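 also: stock transfer was 7.5 nL into about 10 µL; 0% = median of vehicle wells and 100% = median of positive control wells; one replicate is shown; the record names a cut of 25% in any replicate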
# * marks the source's active call; other numbers are inactive results; ? = inconclusive; / = no result given.
SMILES,Calb FLC,RanGTP-Impb inh,Bfl-1 A1 inh,T cruzi repl,Beta apoptosis,Beta2AR agonist,UCH37 inh,LANA-H2B inh
O=C(CSc1ccc(-c2ccccn2)nn1)N1CCCC1,-7,3.4,-1.1,3,-8,0,-0.8,-1.0
NC1=NC(=O)C(Cc2cccc(Cl)c2)S1 (stereo unspecified),8,0.0,-0.1,-10,-7,-8,4.0,-0.7
CC(C)(C)c1ccc(C(=O)NCCC(=O)NCc2ccco2)cc1,31,1.7,0.2,-14,-4,8,-1.4,-8.5
Cc1cccc(-[n+]2c(-c3cccc(Br)c3)[nH]c3nc4ccccc4nc32)c1,-4,1.5,-0.1,38,0,33,/,-4.0
CCCCC(=O)NCc1ccccc1Cl,-13,-0.8,-0.2,-3,-5,-2,2.0,4.0
Cc1ccc(C(=O)OCC(=O)NCCC2=CCCCC2)s1,-5,?,0.0,-14,-1,6,5.1,-2.5
CC(=O)Nc1ccc(N/C(C)=C/C(=O)c2cccnc2)cc1,-8,-0.1,0.4,-5,-2,16,12,-0.7
O=C(NCc1ccc(F)cc1)c1c2c(nc3ccccc13)CCC2,5,2.9,0.5,-13,-5,2,-16,4.0
Cc1ccc(S(=O)(=O)N2CCN(c3nc(C(C)C)c4c(c3C#N)CC(C)(C)OC4)CC2)cc1,-2,?,0.8,51,7,8,-14,-4.7
COc1ccc(C(=O)N/C(=C\c2cn(S(=O)(=O)N(C)C)c3ccccc23)C(=O)NCCCn2ccnc2)cc1,0,2.1,-0.8,-6,3,10,6.4,-3.3
CSCC[C@H](NC(=O)NCc1ccc(F)cc1)C(=O)O,/,-0.8,-1.6,-14,-4,-1,4.3,4.4
CCOC(=O)c1c(NC(=O)COC(=O)c2ccccn2)sc(C)c1C,/,/,-1.3,/,-3,2,-5.3,-2.5
O=[N+]([O-])c1cccnc1SCc1c(F)cccc1Cl,7,4.0,-1.1,5,-8,-11,2.5,2.9
COC(CNC(=O)C1CCN(S(=O)(=O)c2ccc3nc4c(c(C(=O)O)c3c2)CC(C)CC4)CC1)OC (stereo unspecified),5,4.2,0.0,-5,-5,-3,-2.8,-1.8
CCN(CC)c1nc(N2CCN(CCO)CC2)nc2ccccc12,-12,-2.9,-0.5,8,4,12,-0.8,-1.1
COc1ccc(N=Cc2cc(Cl)ccc2O)cc1Cl,-3,-2.4,0.4,-21,6,5,5.5,3.0
Cc1ccc(S(=O)(=O)N(C)c2ccc(NS(C)(=O)=O)cc2)cc1,0,3.2,?,0,-4,1,6.7,-2.2
Cc1ccc(CSc2nnc(-c3cccc(S(=O)(=O)N4CCOCC4)c3)n2C2CCCC2)cc1,-3,5.1,1.1,23,/,3,0.7,0.5
COc1nc2ccc(C)cc2cc1-c1noc(-c2cccnc2)n1,-3,7.5,-0.4,12,-7,-8,-7.5,0.9
O=C(N/N=C/C=C/c1ccccc1)c1cnccn1,0,-0.3,0.1,-11,0,-3,/,3.7
Cc1cc(C)n(-c2nnc(C)c(=O)[nH]2)n1,13,0.1,-0.3,-5,-8,-4,4.6,6.6
O=C(NCc1ccncc1)c1nc(-c2cccs2)no1,32,4.3,0.7,-18,4,-1,5.3,-5.2
CCn1c(NCc2ccc3c(c2)OCO3)nc2ccccc21,-14,-2.8,1.0,13,-1,-14,1.3,-0.5
CCOC(=O)N1CCC(NS(=O)(=O)c2ccccc2)CC1,-15,1.1,-0.7,-16,-2,-1,4.3,1.0
CCn1c(SCc2ccccc2)nc2ccccc2c1=O,0,-2.1,0.1,24,/,-4,3.8,5.0
O=C(O)CCC(=O)N1CCc2cc(S(=O)(=O)NCc3ccc(Cl)cc3)ccc21,-5,-1.4,0.8,10,-3,8,3.6,0.8
CCOc1ccc(NC(=O)CN(C)C(=O)COc2cccc(CC)c2)cc1OCC,-3,-1.3,-0.6,2,1,-2,0.2,-3.5
Cn1cc(/C=C(\C#N)C(=O)Nc2ccccc2O)c2ccccc21,15,3.9,0.5,-2,/,-76,3.4,-3.8
CN(Cc1ccccc1)C(=O)COC(=O)CCNC(=O)c1ccccc1Cl,-17,-0.2,-0.5,3,-3,-15,4.0,-4.7
Cc1ccc(Sc2ccc(N)cn2)cc1,-2,0.8,?,/,/,-7,-0.3,-0.2
O=C(Nc1ccccc1C(=O)NC(Cc1c[nH]c2ccccc12)C(=O)O)c1ccco1 (stereo unspecified),1,2.3,-0.7,-29,-3,-1,4.2,-4.4
COc1ccc(C2CC(c3ccccc3)=NN2C(=O)COC(=O)c2cccnc2Cl)cc1 (stereo unspecified),13,2.5,0.5,1,5,-8,3.4,2.3
CCCc1nnc(SCC(=O)N2C(C)CCCC2C)n1CCCOC (stereo unspecified),-9,2.3,0.1,-3,7,-9,1.9,-0.2
CC(C)c1ccc(C(=O)Nc2nnc(S(=O)(=O)N3CCOCC3)s2)cc1,3,2.1,0.8,2,16,7,5.3,2.5
Cc1ccc(CNC(=O)Cc2ccc(-c3ccccc3)cc2)cc1,0,0.7,0.0,-113,4,-4,-0.4,0.5
O=C(Nc1ncccc1O)c1cccc(S(=O)(=O)N2CCCc3ccccc32)c1,-23,-2.3,0.4,0,/,1,5.4,7.3
Cn1c(=O)c2c(SCC(=O)c3ccccc3)nc(C3CC3)nc2n(C)c1=O,3,-4.0,-0.2,18,6,-3,3.5,4.3
COc1ccc(OC)c(/C=C/C(=O)c2ccc3c(c2)OCO3)c1,/,/,-0.5,/,-6,-8,1.1,/
O=C1c2cccc3cc([N+](=O)[O-])cc(c23)C(=O)N1CCN1CCCC1,?,-3.5,/,56*,/,4,/,/
Cc1ccc(OCCOc2cccc(Br)c2)c([N+](=O)[O-])n1,0,-0.9,0.3,25,1,-6,1.1,5.7
CS(=O)(=O)N1CCC(C(=O)Nc2cccc(Cl)c2)CC1,4,3.8,-0.8,-20,/,3,3.5,0.6
CCOC(=O)C1CCN(C(=O)CCCn2nc(CC)n3c(cc4occc43)c2=O)CC1,-18,7.5,0.3,6,-1,13,1.9,-0.4
Cc1sc2c3ccsc3ccc2[n+]1C,2,-2.2,-0.6,47,-14,1,-4.9,1.2
NC(=O)CC(NC(=O)c1ccccc1)c1ccc(NC2CCCCC2)c([N+](=O)[O-])c1 (stereo unspecified),-9,-2.2,0.3,-9,-7,-20,0.9,-0.8
O=C(CNC(=O)c1cncc(Br)c1)Nc1ccc(F)c(F)c1F,-7,-3.2,1.7,-13,-7,-3,/,6.7

# Record cards, as listed above. Values in the order: Calb FLC, RanGTP-Impb inh, Bfl-1 A1 inh, T cruzi repl, Beta apoptosis, Beta2AR agonist, UCH37 inh, LANA-H2B inh
# NC(=O)CC(NC(=O)c1ccccc1)c1ccc(NC2CCCCC2)c([N+](=O)[O-])c1 (stereo unspecified) as listed: -9, -2.2, 0.3, -9, -7, -20, 0.9, -0.8
# Cc1sc2c3ccsc3ccc2[n+]1C as listed: 2, -2.2, -0.6, 47, -14, 1, -4.9, 1.2

# (list continues)
SMILES,Calb FLC,RanGTP-Impb inh,Bfl-1 A1 inh,T cruzi repl,Beta apoptosis,Beta2AR agonist,UCH37 inh,LANA-H2B inh
CCN(CC)c1ccc(/C=N/N(c2ccccc2)c2ccccc2)c(O)c1,0,-6.1,-1.4,40,95*,15,/,-1.1
O=c1c2nnn(-c3ccccc3)c2ncn1C/C=C/c1ccccc1,-6,8.3,0.3,2,-4,-14,2.8,-2.3
COc1ccc(NC(=O)CCCN2C(=O)C(c3ccccc3)Oc3cccnc32)cc1 (stereo unspecified),-4,-2.2,-0.2,5,-3,7,4.1,13*
CC1CCCCN1CC(=O)Nc1sc2c(c1C#N)CCC2 (stereo unspecified),6,-0.8,0.3,12,/,-6,7.0,-4.5
O=C(Nc1nccs1)C(F)(F)C(F)(F)C(F)(F)C(=O)Nc1nccs1,-12,1.7,-0.4,4,0,-5,-2.3,-3.2
Cc1cccc(CSc2nnc(N)n2-c2ccccc2)c1,49,0.7,-0.4,2,-5,0,-0.2,0.6
Cc1c(NC(=O)C2CCCN2S(=O)(=O)c2ccccc2)c(=O)n(-c2ccccc2)n1C (stereo unspecified),0,0.4,0.4,1,-3,-6,1.7,-0.7
COC(=O)c1ccc(C)c(NC(=O)CCSc2ccccc2)c1,0,-1.8,?,-1,3,6,1.5,7.6
CC(C)C(C(=O)Nc1ccc2c(c1)OCO2)N1C(=O)c2ccccc2C1=O (stereo unspecified),-7,/,-1.2,-2,-4,0,1.4,-1.1
C=CCn1c(SCC(=O)Nc2nc(C)cs2)nnc1C(CO)NC(=O)c1ccccc1 (stereo unspecified),11,4.1,-0.5,3,-2,5,0.6,1.1
Cc1ccc(NC(=O)C2CCN(S(C)(=O)=O)CC2)cc1,5,-0.1,1.1,5,-4,5,1.5,-8.3
CCn1cc(C(=O)O)c(=O)c2cnc(N3CCN(C(=S)NC(=O)c4ccc(F)c(F)c4)CC3)nc21,-3,4.0,1.1,-9,0,4,-1.4,-0.4
COc1cc(OC)c(NC(=O)C(=O)CC(=O)c2ccc(C)cc2C)cc1Cl,13,0.8,0.5,34,-9,2,3.8,-3.0
Cc1nn(-c2ccccc2)nc1C(=O)NNC(=O)c1cccc2ccccc12,-20,-0.2,-0.2,-6,-3,-1,-1.4,-11
Cc1cc(C)cc(NC(=O)Cn2nnc(C(=O)NCc3ccc(F)cc3)c2N)c1,-3,4.8,1.6,26,/,8,3.3,-2.6
CCN(CC)c1nc2c(c(=O)[nH]c(=O)n2C)n1CCCc1ccccc1,-8,-2.9,0.5,10,/,0,0.9,0.8
COc1ccc(Cl)cc1NC(=O)CN1CCC(n2nnc3cc(C)ccc32)CC1,1,-2.6,-0.2,38,29,1,-0.1,5.1
CC(C)(Oc1ccc(Cl)cc1)C(=O)NCC1CCCO1 (stereo unspecified),6,0.6,0.6,1,-2,3,-1.3,-7.3
CCCOc1ccc(C2c3c(oc4cc(C)c(C)cc4c3=O)C(=O)N2CCCN(C)C)cc1OCC (stereo unspecified),-10,-3.7,2.0,-27,-16,-7,4.9,-4.6
CCN1C(=O)/C(=C2/C=Cc3ccccc3N2CC)SC1=S,37,-3.4,-0.2,17,1,-3,2.7,-4.7
O=C(COc1ccc(Cl)cc1)Nc1ccccc1C(=O)NCc1ccco1,10,-4.7,-0.9,19,-2,-15,4.7,-5.0
CCC(C(=O)Nc1cc(C(=O)O)ccc1C)c1ccccc1 (stereo unspecified),-18,-1.6,0.5,-23,-1,-1,0.6,-1.8
CN1CCN(c2ccc(-c3ccc4ccccc4n3)cc2)CC1,-4,1.4,/,44,/,22,-61,/
COC(=O)C1CCN(C(=O)c2ccc(Cl)c(S(=O)(=O)NCc3cccnc3)c2)CC1,-6,/,-0.2,-14,-1,-3,2.6,43*
O=C(O)CNC(=O)/C=C/c1c(Cl)cccc1Cl,29,?,-0.7,4,-2,2,4.1,0.7
CCOC(=O)N1CCN(S(=O)(=O)c2cc(OCC(=O)NC3CCCCC3)c(C)cc2Cl)CC1,4,0.7,0.1,20,10,-11,5.7,-1.1

# High-throughput results deposited in PubChem by several laboratories.
